Menin MLL FP FL: displaces fluorescein MLL peptide from human menin; FP activity change, % at 61.4 µM; AID 1766; Fluorescence polarization, fluorescein-MLL peptide displacement from menin; 290,000 tested, under 10 active; inconclusive = falling polarisation curve, or a change in total fluorescence; inactive = total fluorescence flat and polarisation flat or rising; no compound was filed as active; the % refers to the polarisation; negative = inhibition;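 further: % of control where 0% means no effect; inhibitors lower the polarisation; unlabelled MLL peptide was the positive control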
CtBP-E1A inh: blocks the CtBP interaction with E1A; AlphaScreen GST-E1A/His-CtBP binding, 1536-well; stronger effect = lower value; control for the full effect not named in the record; activity change, % (no concentration beside the values); hit rate 0.49% among 340,000; in the data active means activity change below about -65%; inconclusive means about -30% to -65%; inactive means above about -30%; further: on the % scale 0 is the no-effect control and ±100 the full control effect; compound concentration not given in the record
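Homogeneous bead-based format: GST-tagged E1A captured on glutathione donor beads, His-tagged CtBP on nickel acceptor beads; compounds precede bead addition by 2 h at 37 °C.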
gsp ag: gsp mutant agonism; gsp mutant cells, cAMP HTRF, 30 min; control for the full effect not named in the record; Potency, µM (titrated, usually from 76.9 µM), for inactives: top-dose activation (cAMP increase), most hits filed as activators; hit rate 0.13% among 340,000; AID 624287; active = well fitted activation curve with a large enough effect; inconclusive = small, poorly fitted or top-dose-only effect, or another doubt; inactive = no such curve, though single readings can be large or run the other way; cell line not stated here;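 further: phosphodiesterase inhibitor Ro 20-1724 added with compounds to block cAMP breakdown; potency means the concentration at half of the fitted maximal effect; nearly all actives have a fitted effect of over 60% in size; about a fifth of the inactives were tested at one dose only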
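Cells in DMEM/10% FBS with G418 were pretreated with compounds in DMSO plus […] (300 uM stock) for 30 min at 37C. cAMP was measured by HTRF (cAMP-d2 plus anti-cAMP antibody-K) after 30 min at room temperature.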
TRPV1 potentiator: enhances activation of the human vanilloid receptor TRPV1 | TRPV1-expressing cells, Fluo-8 calcium influx, capsaicin EC20 potentiation; host cell line not named in the record; control for the full effect not named in the record | hit rate 0.02% among 320,000 | Q8NER1 | potentiation, % at 8.33 µM | AID 540277; active means potentiation above 80%; inconclusive means 30% to 80%; inactive means below 30%; further: 0% is about no effect
Target sequence (Q8NER1 whole entry, looked up): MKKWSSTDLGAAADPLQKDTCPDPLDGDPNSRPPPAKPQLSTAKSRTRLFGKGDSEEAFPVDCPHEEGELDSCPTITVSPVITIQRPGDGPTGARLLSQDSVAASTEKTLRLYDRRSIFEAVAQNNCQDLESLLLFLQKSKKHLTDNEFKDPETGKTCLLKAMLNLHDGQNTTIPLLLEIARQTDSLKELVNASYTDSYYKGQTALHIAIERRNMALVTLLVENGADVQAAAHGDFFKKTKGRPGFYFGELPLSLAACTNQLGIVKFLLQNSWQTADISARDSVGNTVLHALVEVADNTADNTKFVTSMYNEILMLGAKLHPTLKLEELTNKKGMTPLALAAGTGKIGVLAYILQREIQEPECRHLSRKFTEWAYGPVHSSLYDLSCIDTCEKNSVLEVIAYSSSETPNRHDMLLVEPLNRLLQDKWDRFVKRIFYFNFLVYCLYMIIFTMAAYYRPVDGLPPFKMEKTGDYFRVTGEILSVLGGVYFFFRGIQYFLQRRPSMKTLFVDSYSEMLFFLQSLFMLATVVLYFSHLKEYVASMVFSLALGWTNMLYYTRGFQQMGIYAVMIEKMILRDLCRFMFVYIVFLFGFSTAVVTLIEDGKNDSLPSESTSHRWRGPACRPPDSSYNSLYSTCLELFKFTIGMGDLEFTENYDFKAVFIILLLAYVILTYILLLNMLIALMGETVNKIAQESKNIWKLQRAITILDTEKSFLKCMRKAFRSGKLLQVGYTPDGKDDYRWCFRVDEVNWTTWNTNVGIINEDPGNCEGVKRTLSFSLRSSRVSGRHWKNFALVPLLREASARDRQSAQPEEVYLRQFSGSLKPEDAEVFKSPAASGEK
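Fluo-8 calcium influx in TRPV1-expressing cells, kinetic read (ex 480/em 520 nm). Compound added and read 3 min for agonist activity, followed by capsaicin at EC20 final and 2 min further read for enhancement.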
gsp antagonist: antagonists of gsp mutant (McCune-Albright syndrome); gsp-mutant cells, cAMP HTRF, 30 min; control for the full effect not named in the record; Potency, µM (top dose mostly 76.9 µM), for inactives: at the top dose activity change, negative = inhibition, most hits filed as inhibitors; hit rate 0.4% among 340,000; AID 624288; active = falling curve of any shape with a large fitted effect; inconclusive = falling curve, mostly with a smaller effect; inactive = flat or rising curve; cell line not stated here;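 further: intracellular cAMP measured with PDE inhibitor Ro 20-1724 present during compound exposure; potency means the concentration at half of the fitted maximal effect; on the % scale 0 is the no-effect control and ±100 the full control effect; nearly all actives have a fitted effect of over 65% in size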
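HTRF cAMP read-out (cAMP-d2 plus anti-cAMP antibody-K in lysis buffer, 30 min RT). Before lysis, cells are exposed to compounds with […] for 30 min at 37C in DPBS containing Ca/Mg, BSA and Tween 20.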
ClpP mod: qHTS Assay for Activators of ClpP | hit rate 1.9% among 340,000 | Potency, µM (doses to about 57.5 µM), for the others: at the top dose activity change, negative = active | purified B. subtilis ClpP, FRET peptide cleavage, 20 min | ATP-dependent Clp protease proteolytic subunit (Bacillus subtilis (strain 168)), P80244; active = well fitted falling curve with a large enough effect; inconclusive = small, poorly fitted or top-dose-only effect; inactive = no such curve, though single readings can be large or run the other way; further: potency means the concentration at half of the fitted maximal effect; the source files actives as falling curves though it sought activators and does not explain the sign; nearly all actives have a fitted effect of over 65% in size; many hits overshoot -100%
Target sequence (P80244 whole entry, looked up): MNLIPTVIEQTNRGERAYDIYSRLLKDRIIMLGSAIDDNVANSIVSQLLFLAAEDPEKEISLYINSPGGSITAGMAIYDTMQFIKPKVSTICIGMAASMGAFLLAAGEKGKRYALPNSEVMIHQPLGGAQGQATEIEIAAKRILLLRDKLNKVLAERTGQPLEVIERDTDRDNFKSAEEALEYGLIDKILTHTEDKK
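ClpP 10 microg/mL final, pH 8 Tris/KCl buffer with BSA, glycerol, Tween-20; compound pinned in; FRET-FV substrate; RT 20 min; Ex320/Em430; ΔFRET vs ADEP 5.8 microM, DMSO, no enzyme.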
Sfp PPTase inh: inhibitors of Bacillus subtilis Sfp phosphopantetheinyl transferase; hit rate 3.5% among 310,000; Biochemical Sfp PPTase activity, qHTS; Q9F4F7; Potency, µM, inactives show max response, negative = inhibition, hits mostly inhibitors; active means well fitted inhibition curve with a large enough effect; inconclusive means small, poorly fitted or top-dose-only effect, or another doubt; inactive means no such curve, though single readings can be large or run the other way;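 further: the enzyme is Sfp with the accession as filed and its product quenches rhodamine fluorescence; potency means the concentration at half of the fitted maximal effect; 0% = enzyme reaction without inhibitor and -100% = no enzyme wells; top concentration of the series not given in the record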
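Sfp 15 nM + cpd, 15 min RT; start w/ rhodamine-CoA 5 uM, BHQ-2-YbbR 12.5 uM (final); 50 mM Hepes pH 7.6, 10 mM MgCl2, 0.01% NP-40, 0.01% BSA; read 525/598 nm at 0 and 30 min.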
Numbers without * were called inactive; ? = inconclusive; nt = no result given; & = joins results of further samples; [ ] = dose if it differs, or a comment.

SMILES	Menin MLL FP FL	CtBP-E1A inh	gsp ag	TRPV1 potentiator	gsp antagonist	ClpP mod	Sfp PPTase inh
CC[N+](CC)(CC)CC(=O)Nc1c(C)cccc1C	-2.1&-0.8&-0.5&-19	8	nt	nt	1%	-2.8%	9%&9%&30%&29%&-7%
CC(C)NC(=O)C(=O)NCCN1CCN(C(=O)c2ccc(C(C)(C)C)cc2)CC1	-7.1	-15	-27%	14	4%	nt	11%
COC(=O)c1ccc(COn2nnc3ccccc32)cc1	-1.8	0	-11%[15.4 µM]	-13	5%	nt	1%
CCOC(=O)COc1c(Cl)cc(C2NC(=S)NC(c3ccccc3)=C2C(C)=O)cc1OCC (stereo not given)	2.0	5	-5%	2	-18%	?	8%
COc1cc(OC)cc(C(=O)N[C@H](C(=O)OCC(=O)NC(C)c2ccccc2)C(C)C)c1 (stereo not given in full)	4.3	-12	13%	-13	3%	-3.5%	-12%
CCOc1ccc(S(=O)(=O)N2CCCC(C(=O)N3CCCC3)C2)cc1 (stereo not given)	nt	0	21%	-10	7%	0.6%	18%
CCOC(=O)c1nnc2ccnn2c1N	-1.1	-11	4%	2	0%	-3.2%	0%
COc1cccc(-c2nc(CS(=O)CC(=O)O)c(C)o2)c1 (stereo not given)	1.4	0	18%	7	9%	?	6%
CCCCC(CC)C(=O)O (stereo not given)	nt	-5	nt	nt	5%	-1.4%	nt
Nc1cc(=O)[nH]c(SCC(=O)Nc2cc(Cl)ccc2Cl)n1	2.8	0	-13%	0	-5%	0.4%	-16%
O=C(Nc1cc2c(cc1Br)OCCO2)c1ccco1	-1.4	11	-16%	-1	10%	-0.1%	8%
O=C(COC(=O)C1CC(=O)N(Cc2ccco2)C1)Nc1ccccc1[N+](=O)[O-] (stereo not given)	nt	0	33%[15.4 µM]	-1	2%	nt	nt
COc1ccccc1N(Cc1cc2cccc(C)c2[nH]c1=O)C(=O)C(C)C	-1.4	7	6%	-5	6%	-25%	-6%
CCOC(=O)N1CCN(C2CC(=O)N(c3ccc(Cl)c(Cl)c3)C2=O)CC1 (stereo not given)	-3.6	6	-2%	-2	-2%	-0.5%	-3%
COC(=O)c1ccc(NC(=O)C(=O)N2CCN(C(=S)Nc3ccc(OC)cc3)CC2)cc1	6.3	2	-14%	-2	2%	?	27%
CCCNC(=O)N1CCN(c2nc(C(C)C)c3c(c2C#N)CC(C)(C)OC3)CC1	0.5	-21	6%	-2	2%	5.2%	23%
CC(C)c1ccc(N(CC(=O)NCCSC(C)(C)C)S(C)(=O)=O)cc1	-0.6	-10	11%	-6	-22%	-2.4%	-2%
COc1ccc(-n2c(NC(=O)c3ccco3)c(C#N)c3nc4ccccc4nc32)cc1	?	3	8%	-3	?	-12%	35µM*
O=C1C=C(c2ccc3ncccc3c2)C[C@@H](c2ccc3c(c2)OCO3)C1	nt	nt	-17%	-7	26%	0.7%	nt
O=C(/C=C/c1c(Cl)cccc1Cl)NCc1ccccc1	3.3	14	-5%	-20	8%	0.7%	-2%
COc1cc(C)ccc1OCCON1C(=O)CCC1=O	-8.6	4	?	9	7%	nt	-7%
Cc1sc2ncnc(N3CCC(C(=O)Nc4cc(S(C)(=O)=O)ccc4Cl)CC3)c2c1C	nt	-18	3%[15.4 µM]	6	?	nt	nt
CCOC(=O)N1CCN(c2ccccc2O)CC1	1.6	9	-1%	-2	-12%	-0.2%	12%
COc1ccc(OC)c(-c2cc(C(=O)N3CCOCC3)no2)c1	-2.8	-2	-3%[15.4 µM]	4	-2%	nt	-16%
COc1ccc(NC(C)=O)cc1NC(=O)CSc1nnc(C2CCCCC2)n1N	-4.6	14	13%	-21	17%	-0.4%	-7%
CN1CCN(c2ccc(NC(=O)c3ccc(Cl)cc3)cn2)CC1	1.9	0	6%[15.4 µM]	-27	14%	nt	13%
O=C(NCCc1ccccc1)c1ccc(NCC2CCCO2)c([N+](=O)[O-])c1 (stereo not given)	-0.3	-12	-3%[15.4 µM]	-10	-44%	-0.5%	-14%
O=C(O)C1CC=CCC1C(=O)Nc1cccc(Cl)c1 (stereo not given)	14	0	-26%	-9	3%	1.0%	11%
Cc1ccc(NC(=O)CN(C)C(=O)CSc2nnc(NC(C)C)s2)cc1	nt	-16	-20%	2	6%	?	nt
CCOC(=O)c1sc(NC(=O)OC)c(C(=O)OC)c1C	-0.6	7	-6%[15.4 µM]	5	8%	0.6%	-9%
O=C(O)C(Cc1ccc(O)cc1)N1C(=O)c2c(Cl)c(Cl)c(Cl)c(Cl)c2C1=O (stereo not given)	nt	-3	-34%[inhibitor][15.4 µM]	nt	-2%	nt	nt
N#Cc1c(NC(=O)CSc2ncn[nH]2)sc2c1CCCCC2	4.7	-6	-34%[inhibitor]	-5	?	0.8%	17%
COc1cc(CC(=O)OCC(=O)Nc2cc(S(=O)(=O)N3CCCC3)ccc2Cl)cc(OC)c1OC	0.1	-15	-9%	14	?	-4.4%	-2%
NC(N)=NS(=O)(=O)c1ccc(NC(=S)NC(=O)/C=C/c2ccc(F)cc2)cc1	0.1	-10	-4%[15.4 µM]	-5	10%	-3.6%	6%
C/C(=N\NC(=O)c1ccc(C)cc1)C1C(=O)c2ccccc2C1=O	1.4	-25	-10%	-11	?	0.2%	20%
N#CCCn1cc(/C=C2\NC(=S)N(c3ccccc3)C2=O)c(-c2ccc(-c3ccccc3)cc2)n1	1.6	0	7%[15.4 µM]	11	nt	nt	25%
Nc1nc2nc(-c3ccc(OCc4ccccc4)cc3)cc(C(F)(F)F)n2n1	-5.0	-8	?	8	6%	7.1µM*	5%
CCC1Oc2ccc(C)cc2N(CC(=O)N(Cc2cccnc2)Cc2ccc(C)o2)C1=O (stereo not given)	-0.2	-2	17%	-19	-32%	2.1%	-90%
CCNC(=O)CC1C(=O)N(c2ccc(C)cc2)C(=O)N1CCOC (stereo not given)	-4.7	4	-12%	2	6%	1.4%	12%
COc1ccc(NC2=NC(=S)N(c3ccccc3C)C23CCCCC3)cc1	0.8	-9	-46%[inhibitor]	-7	?	0.3%	-10%
Cc1ccc(S(=O)(=O)NNC(=O)c2cnn(-c3ccccc3)c2-n2cccc2)cc1	-1.4	0	15%	-7	-18%	-1.0%	16%
Oc1[nH]c2ccccc2c1N=Nc1ccccc1	?	-8	6%[15.4 µM]	-12	-5%	nt	-13%
Cc1ccc2nc(SCC(=O)NCc3ccc4c(c3)OCO4)nc(=O)n2c1	nt	2	31%	14	3%	-1.6%	nt
COc1ccc(C(C(N)=O)c2ncc(C(F)(F)F)cc2Cl)cc1 (stereo not given)	-2.8	nt	-7%	11	8%	0.4%	16%
CCc1ccccc1NC(=O)CSc1ncn[nH]1	4.9	7	-4%	-6	-1%	-0.5%	6%
O=C(COC(=O)c1cc(S(=O)(=O)Nc2ccccc2Cl)ccc1O)Nc1nc2ccccc2s1	-3.5	-18	14%[15.4 µM]	-2	?	nt	24%
O=C(N/N=C/c1cccs1)c1n[nH]c2c1CCC2	4.3	-5	7%	-12	14%	0.7%	3%
CCOc1ccc(CC(=O)Nc2nccs2)cc1	-2.3	2	-7%[15.4 µM]	-1	-6%	nt	13%
O=C(CSc1ncn[nH]1)Nc1ccccc1Sc1ccccc1	2.2	5	-53%[inhibitor]	-1	-12%	-0.7%	13%
NNc1ccc2nncn2n1	1.5	nt	23%	-1	8%	-0.4%	?

As a short view, part of the list above:
SMILES	Menin MLL FP FL	CtBP-E1A inh	gsp ag	TRPV1 potentiator	gsp antagonist	ClpP mod	Sfp PPTase inh
N#CCCn1cc(/C=C2\NC(=S)N(c3ccccc3)C2=O)c(-c2ccc(-c3ccccc3)cc2)n1	1.6	0	7%[15.4 µM]	11	nt	nt	25%
Nc1nc2nc(-c3ccc(OCc4ccccc4)cc3)cc(C(F)(F)F)n2n1	-5.0	-8	?	8	6%	7.1µM*	5%
CCC1Oc2ccc(C)cc2N(CC(=O)N(Cc2cccnc2)Cc2ccc(C)o2)C1=O (stereo not given)	-0.2	-2	17%	-19	-32%	2.1%	-90%
CCNC(=O)CC1C(=O)N(c2ccc(C)cc2)C(=O)N1CCOC (stereo not given)	-4.7	4	-12%	2	6%	1.4%	12%
COc1ccc(NC2=NC(=S)N(c3ccccc3C)C23CCCCC3)cc1	0.8	-9	-46%[inhibitor]	-7	?	0.3%	-10%
Cc1ccc(S(=O)(=O)NNC(=O)c2cnn(-c3ccccc3)c2-n2cccc2)cc1	-1.4	0	15%	-7	-18%	-1.0%	16%
Oc1[nH]c2ccccc2c1N=Nc1ccccc1	?	-8	6%[15.4 µM]	-12	-5%	nt	-13%
Cc1ccc2nc(SCC(=O)NCc3ccc4c(c3)OCO4)nc(=O)n2c1	nt	2	31%	14	3%	-1.6%	nt
COc1ccc(C(C(N)=O)c2ncc(C(F)(F)F)cc2Cl)cc1 (stereo not given)	-2.8	nt	-7%	11	8%	0.4%	16%
CCc1ccccc1NC(=O)CSc1ncn[nH]1	4.9	7	-4%	-6	-1%	-0.5%	6%
O=C(COC(=O)c1cc(S(=O)(=O)Nc2ccccc2Cl)ccc1O)Nc1nc2ccccc2s1	-3.5	-18	14%[15.4 µM]	-2	?	nt	24%
O=C(N/N=C/c1cccs1)c1n[nH]c2c1CCC2	4.3	-5	7%	-12	14%	0.7%	3%

Screening results: PubChem BioAssay, National Center for Advancing Translational Sciences (NCATS)
